# Tau fluor cs = Counterscreen qHTS for Inhibitors of Tau Fibril Formation, Fluorescence Polarization | tau K18 P301L (four-repeat tau fragment) Alexa594 fluorescence, heparin fibrillization | Potency, µM (series often up to 57.7 µM), without a hit: at the highest dose activity change, negative = decrease | 280,000 tested, 0.93% active; active means well fitted curve in the direction sought with a large enough effect; further: nearly all actives have a fitted effect of over 55% in size
#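 Human K18 P301L tau (15 uM unlabeled plus 0.24 uM Alexa 594-labeled, final) in 100 mM sodium acetate pH 7 was mixed with compound and 20 uM heparin and incubated 6 hr at 37 C.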
# * = called active by the depositor; & = joins results of further samples. On the % scale 0 is the no-effect control and ±100 the full control effect; potency means the concentration at half of the fitted maximal effect. The list is partial, and most or all hits are left out here.
nr	SMILES	Tau fluor cs
1	CC(C)NC[C@H](O)COc1ccc(CC(N)=O)cc1	-3%&-2%&-6%&9%&-4%&-12%
2	CC(C)NCC(O)COc1ccc(CC(N)=O)cc1 (stereo unspecified)	-11%&0%&4%&-3%
3	O=C1C(CCS(=O)c2ccccc2)C(=O)N(c2ccccc2)N1c1ccccc1 (stereo unspecified)	0%&-2%
4	COC(=O)Cc1c[nH]c2cccc(OCC(O)CN(Cc3ccccc3)C(C)C)c12 (stereo unspecified)	-10%
5	COc1cc2nc(N3CCN(C(=O)c4ccco4)CC3)nc(N)c2cc1OC	-17%&-8%&-3%&-12%&-12%&-9%&-2%&-12%
6	CCn1cc(C(=O)O)c(=O)c2cc(F)c(N3CCN(C)CC3)cc21	-5%&-2%

# Fetched by compound from above (two):
nr	SMILES	Tau fluor cs
5	COc1cc2nc(N3CCN(C(=O)c4ccco4)CC3)nc(N)c2cc1OC	-17%&-8%&-3%&-12%&-12%&-9%&-2%&-12%
2	CC(C)NCC(O)COc1ccc(CC(N)=O)cc1 (stereo unspecified)	-11%&0%&4%&-3%

# Among those listed so far, two have a carbonyl joined to an NH by a bond outside any ring.
nr	SMILES	Tau fluor cs
1	CC(C)NC[C@H](O)COc1ccc(CC(N)=O)cc1	-3%&-2%&-6%&9%&-4%&-12%
2	CC(C)NCC(O)COc1ccc(CC(N)=O)cc1 (stereo unspecified)	-11%&0%&4%&-3%

# Screens from PubChem.
